Assay outcomes: PubChem BioAssay, several laboratories
Beta apoptosis: inhibitors of cytokine-induced beta cell apoptosis, primary screen, luminescence; INS-1E cytokine-induced death, ATP luminescence, 48 h; percent of positive-control rescue, neutral wells zero; protection from apoptosis, % (no concentration beside the values); 300,000 compounds, 0.8% hits;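 active = all replicates at 75% or more, or half of them and the mean; inconclusive = half reach 75% but not the mean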;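 note: 0% = cytokine-treated negative control wells and 100% = positive control rescue; higher means more ATP so stronger rescue from cytokine killing; wells of about 40 µL received 100 nL stock; the first replicate is given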
Calb FLC: C. albicans growth inhibition with fluconazole, primary screen, CaCi-2 strain, Alamar Blue fluorescence | growth inhibition, % (test concentration not listed) | 300,000 compounds, 0.57% hits | C. albicans CaCi-2 (fluconazole-resistant clinical isolate) + fluconazole, 48 h;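 active = most replicates above 75%; inconclusive = exactly half above 75%; inactive = most below 75%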;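 note: all wells also contain fluconazole at 8 µg/ml as a sub-toxic cotreatment; 0% = median of DMSO wells and 100% = median of geldanamycin control wells; wells of about 8 µL received 7.5 nL stock; the first replicate is given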
Bfl-1 A1 inh: caspase 3/7 activation in MEF A1-2A-BIM cells, primary screen, A1 inhibitor project, cell-based, luminescence, HTS. Caspase-Glo 3/7 luminescence, 3 h; percent of clofoctol response, vehicle zero. caspase activation, % (no concentration beside the values). 330,000 compounds, 0.066% hits. AID 2462, 2010;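 active = over half of replicate activation scores above 10%, or exactly half above 10 with the replicate mean above 10; inconclusive = replicate mean below 10 yet half the replicates above 10; inactive = over half of replicates below 10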;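 note: wells of about 30 µL received 50 nL stock; many hits fall short of the cut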
Vif A3G: inhibitors of Vif binding to APOBEC3G peptide, primary screen, biochemical, TR-FRET, GST-Vif 1-94, biotin-A3G peptide, dose response retest (AID 1117319) | TR-FRET GST-Vif / biotin-A3G peptide binding; higher % means a stronger effect; test concentration not given here; strong numbers were not always called active | one-dose inhibition, %; IC50 in µM for titrated hits | 260,000 compounds, 0.57% hits;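 active = above the screen mean plus three standard deviations and confirmed in dose response; inconclusive = results disagree or hit not tested in dose response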;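 note: Vif residues 1-94 fused to GST binding biotinylated APOBEC3G peptide 110-148; 0% = full assay without inhibitor and 100% = GST in place of GST-Vif; retest series ran down from 100 µM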
rRNA inh HTS: reduced GFP signal of wild-type E. coli, primary screen, bacterial rRNA inhibitor project, GFP/RFP fluorescence, OD600, single point | E. coli WT GFP vs humanized-ribosome RFP mutants, 24 h; hits give low values; DMSO median 0, no signal -100 | GFP signal change (wild-type ribosome), % (concentration not given with the values) | 350,000 compounds, 1.6% hits | AID 720706, 2013;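 active = significant combined selectivity score with lowered wild-type GFP, culture density cut under 30%, mutant RFP and density less affected; inactive = any of these conditions unmet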; note: one replicate is shown; some compounds called inactive have numbers as strong as hits
T cruzi repl: inhibitors of intracellular T. cruzi growth, primary screen, luminescence, NIH3T3 host cells. inhibition, % (no concentration beside the values). T. cruzi beta-gal in NIH3T3, 90 h. 300,000 compounds, 1.4% hits;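 active = mean inhibition across valid replicates above about 55%, limit read from the data; inconclusive = mean below that limit but half or more replicates reach it; inactive = mean below it, under half of replicates reach it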;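 note: signal also drops with host cell toxicity which is not excluded here; 0% = plate median of DMSO wells and 100% = zero luminescence signal; higher percent means less beta-gal luminescence so fewer parasites; stock transfer was 50 nL into about 50 µL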
MLL AF4-AF9 inh: inhibitors of AF4 peptide binding to AF9, primary screen, biochemical, AlphaScreen, biotin-AF4 peptide, FLAG-AF9, single point; Protein AF-9 (Homo sapiens), P42568; inhibition, % at 10 µM; 350,000 compounds, 0.47% hits; AID 651704, 2012;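 active = every replicate reaching a set inhibition limit, whatever the replicate mean, cut at about 25% in these data; inconclusive = mean inhibition reaches that limit but some replicates miss it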;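 note: 0% = plate neutral control median and 100% = total signal loss; the record names both 10 and 1 µM as test concentration; the first replicate is given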
Target sequence (P42568 whole entry, looked up): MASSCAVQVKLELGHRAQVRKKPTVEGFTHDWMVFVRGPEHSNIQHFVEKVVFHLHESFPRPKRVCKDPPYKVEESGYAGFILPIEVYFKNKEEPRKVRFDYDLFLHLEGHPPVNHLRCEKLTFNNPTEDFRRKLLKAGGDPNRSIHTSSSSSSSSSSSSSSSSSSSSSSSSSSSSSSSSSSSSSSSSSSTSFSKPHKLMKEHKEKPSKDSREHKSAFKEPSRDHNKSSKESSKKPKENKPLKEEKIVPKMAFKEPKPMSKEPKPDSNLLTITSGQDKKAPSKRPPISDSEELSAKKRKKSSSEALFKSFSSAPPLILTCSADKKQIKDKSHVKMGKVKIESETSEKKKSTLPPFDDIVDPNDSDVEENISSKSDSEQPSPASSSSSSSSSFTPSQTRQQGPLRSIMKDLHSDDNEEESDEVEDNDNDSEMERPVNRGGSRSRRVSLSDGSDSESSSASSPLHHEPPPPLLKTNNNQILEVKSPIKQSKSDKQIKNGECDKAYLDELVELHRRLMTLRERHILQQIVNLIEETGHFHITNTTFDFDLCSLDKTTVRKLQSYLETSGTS
RanGTP-Imp inh: inhibitors of RanGTP-importin-beta interaction, primary screen, biochemical, FRET, CFP-Ran, YFP-importin-beta, homogeneous | Ran GTPase (GTP-bound) - importin-beta complex | cell-free CFP-Ran/YFP-importin-beta FRET ratio | inhibition, % (test concentration not listed) | 300,000 compounds, 1.1% hits | AID 2216, 2009;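 active = most replicates above 15%; inconclusive = exactly half above 15%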;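 note: 0% = DMSO wells and 100% = Ran loaded with GDP instead of GTP; wells of about 40 µL received 100 nL stock; the first replicate is given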
rRNA inh HTS OD600: also measured in rRNA inh HTS; calls as there; OD600 change, %; measured here: OD600 growth;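 optical density of the mix in the first replicate; 0 = DMSO median and -100 = no signal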
rRNA inh HTS RFP: also measured in rRNA inh HTS; calls as there; RFP signal change, %; measured here: RFP humanized mutant strains;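 first replicate; 0 = DMSO median and -100 = no signal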
Numbers without * were called inactive; u = inconclusive; x = not tested or not shown; & = joins results of further samples. An excerpt, so the mix of outcomes need not match the whole.

SMILES	Beta apoptosis	Calb FLC	Bfl-1 A1 inh	Vif A3G	rRNA inh HTS	rRNA inh HTS OD600	rRNA inh HTS RFP	T cruzi repl	MLL AF4-AF9 inh	RanGTP-Imp inh
NC(=O)N/N=C/c1ccc(OCc2cccc(Cl)c2)cc1	x	24	-0.9	-4%	14	10	0.7	-26	-2.0	-0.7
Cc1occc1C(=O)N1CCN(c2ccc([N+](=O)[O-])cc2)CC1	-3	0	0.5	x	-5	-6	1.9	-6	0.6	-4.7
NC(=O)C(=O)N/N=C1\CCc2ccccc21	-3	32	0.1	-2%	-11	-3	0.3	8	-1.2	6.3
CCOc1ccc(C(=O)CCC(=O)NNC(=O)CCN2CCN(c3ccccc3)CC2)cc1	0	x	1.2	-6%	x	x	x	x	3.5	x
O=C(N/N=C/c1ccncc1)c1cccc(NC(=O)c2ccc(Cl)cc2)c1	4	-7	0.2	-8%	-3	-3	-4.1	-7	0.2	0.4
O=C(N/N=C/c1ccc(Sc2nc3ccccc3s2)c([N+](=O)[O-])c1)c1ccccn1	3	-7	-0.3	0%	x	x	x	6	x	2.5
COc1ccc(C(=O)Nc2cccc3c2CCCC3)c(OC)c1	x	27	-1.1	x	5	12	0.4	x	-1.9	3.1
CCOc1ccc(/C=N/NC(=O)c2c(-c3ccccc3)noc2C)cc1	-5	-10	-0.7	-8%	22	8	2.5	-5	0.3	-0.1
Cc1c(OCc2ccc([N+](=O)[O-])cc2)ccc2c3c(c(=O)oc12)CCC3	6	57	-0.2	14%	x	x	x	2	x	-2.1
O=C(CCS(=O)(=O)c1ccccc1)Nc1ccc(-c2nc3ccccc3s2)cc1	9	x	-7.5	-11%	10	11	-1.8	-35	1.2	x
O=C(Oc1ccc(Oc2ccccc2)cc1)N1CCC(O)CC1	-8	-14	0.8	x	-14	-16	0.4	-6	-1.0	-3.2
Cc1ccccc1OCC(=O)NC(=S)Nc1ccccc1N1CCN(S(C)(=O)=O)CC1	-1	4	0.1	4%	4	8	5.7	6	-5.7	-1.9
Cc1ccccc1CN1C[C@@H]2C[C@@H](c3cn[nH]c3-c3ccc(F)cc3)N3CCC[C@@]23C1=O	-5	-4	-1.0	6%	-48	-74	-8.3	19	5.8	2.0
Cc1cc(NC(=O)c2ccc(F)cc2)n(CCOC(=O)c2ccc(F)cc2)n1	-4	-14	-0.8	x	4	10	-0.2	-3	4.6	0.8
Cc1onc(-c2c(F)cccc2Cl)c1C(=O)N=C(N)N1CC(C)OC(C)C1 (centres undefined)	-3	-12	2.0	u	-16	-19	-0.4	-3	-3.0	-5.2
CCCCCNCc1ccc(Br)cc1	-16	-4	0.9	6%	-4	-3	-1.3	3	6.5	-1.9
FC(F)(F)c1ccc(Cl)c(N/N=C/c2ccc(N3CCOCC3)s2)c1	-3	-3	0.5	u	x	x	x	25	x	4.1
CC(=O)Nc1cccc(-c2csc(Nc3ccc(Cl)cn3)n2)c1	x	u	-2.5	-3%	-42	-67	-11	33	1.0	4.6
COc1cc(C2CC(=O)Nc3n[nH]c(-c4ccccc4)c32)cc(OC)c1OC (centres undefined)	-1	0	-0.2	2%	x	x	x	20	x	0.8
C=C(C)Cn1c(C(C)NC(=O)CCC)nc2ccccc21 (centres undefined)	-6	6	0.6	-4%	x	x	x	-9	x	-0.2
O=C(CN1C(=O)NC2(CCCC2)C1=O)OCc1cccc(Br)c1	-7	x	0.6	x	-9	-3	0.9	x	-2.3	x
CCOC(=O)c1ccc(N2C(=O)CC(Nc3ccc(CCO)cc3)C2=O)cc1 (centres undefined)	-1	-3	1.2	8%	x	x	x	-14	x	-2.3
O=C(C#Cc1ccccc1)c1ccco1	100*	-2	-1.7	6%	-4	3	-3.5	-19	-0.8	-10
CC(=O)C1CCN(Cc2ccccc2)CC1	-7	5	0.5	64%	x	x	x	-3	x	29
CC(C)C(OC(=O)c1cc2c(s1)CCCCC2)C(=O)NC(N)=O (centres undefined)	-1	-7	4.5	x	x	x	x	-30	x	3.5

Looked up above:
CC(=O)Nc1cccc(-c2csc(Nc3ccc(Cl)cn3)n2)c1 @ rRNA inh HTS: -42
CCOc1ccc(C(=O)CCC(=O)NNC(=O)CCN2CCN(c3ccccc3)CC2)cc1 @ Vif A3G: -6%

(cont.)
SMILES	Beta apoptosis	Calb FLC	Bfl-1 A1 inh	Vif A3G	rRNA inh HTS	rRNA inh HTS OD600	rRNA inh HTS RFP	T cruzi repl	MLL AF4-AF9 inh	RanGTP-Imp inh
CCOC(=O)c1ccccc1NC(=O)COC(=O)C(CC(C)C)NC(N)=O (centres undefined)	-5	21	-1.0	-6%	-7	-5	0.5	-11	1.1	3.5
COc1ccc(NC(=O)c2ccccc2NC(=O)CSc2ccc(C)cc2)cc1	7	-5	0.5	5%	12	7	1.0	-4	-2.9	-5.1
CCOc1ccc(N(CC(=O)NC2CCCC2)C(=O)CCC(=O)Nc2nc(C)cs2)cc1	-5	3	-0.6	x	0	1	-4.0	1	-5.1	-2.0
COC(=O)c1ccc(/C=N/OCC(=O)NCCc2ccc(OC)c(OC)c2)cc1	-3	33	-1.6	u	-16	-5	4.4	-8	-0.1	1.2
O=C(CCCc1nc(-c2ccc(Cl)cc2)no1)NC1CCCCC1	15	12	0.8	x	1	11	-1.2	-15	-1.6	-2.5
CCSc1nnc(NC(=O)CSc2nncc(=O)n2N)s1	4	-20	0.2	7%	-5	6	2.9	-13	3.6	-2.1
O=C(CN1CCN(C(=O)c2ccco2)CC1)Nc1ccc(Br)cc1	2	-3	-0.6	x	-4	0	-1.6	0	-2.1	-2.2
O=C(NCCC(=O)N1CCCC1)c1ccccc1Cl	-2	6	0.3	x	5	1	-0.5	-7	-1.5	u
COc1ccccc1Cc1nc(-c2ccc(C)cc2)no1	5	-15	-2.1	25%	x	x	x	-10	x	3.0
Cc1ccc(C(=O)Cn2cnc3ccccc3c2=O)cc1	-5	6	-0.3	2%	x	x	x	x	x	x
O=C(O)c1cccc(NC(=S)N/N=C/c2c[nH]c3ccccc23)c1	-8	3	-2.2	-10%	4	6	3.1	7	-13	u
COc1ccc(Cl)cc1-c1nc(SCC(=O)NC2CCS(=O)(=O)C2)n[nH]1 (centres undefined)	1	x	1.0	-17%	15	12	2.5	x	-1.6	x
CCNC(=O)Nc1cc(S(=O)(=O)Nc2ccc(OC)cc2)ccc1N1CCOCC1	89*	x	0.7	-10%	-2	-8	-1.6	x	x	x
Cc1cc(NCc2ccccc2)n2ncc(-c3ccccc3)c2n1	1	11	-2.1	-5%	-9	-15	-7.2	22	-4.7	-3.2
O=C(c1ccccc1)c1ccc(O)cc1O	-4	10	-2.4	x	27	-10	-1.8	4	-5.9	-22
CN(C)S(=O)(=O)c1cc(NC(=O)COC(=O)/C=C/c2ccco2)ccc1Cl	-4	-5	-0.7	x	1	1	3.1	-26	3.5	2.5
CC1CC(NC(=O)/C=C/C(=O)O)CC(C)(C)C1 (centres undefined)	-3	-9	0.9	-3%	9	2	0.2	10	-1.1	2.4
Cc1cccc(C(=O)NNC2=C(C(=O)C(F)(F)F)CCC2)c1O	49	105*	-1.8	u	x	x	x	1	x	0.8
CCCCCC(=O)N/N=C/c1cccs1	-5	-15	-0.3	9%	1	1	-3.2	-10	2.3	-3.0
O=C(O)c1ccc(N/C(=N\S(=O)(=O)c2ccc(Cl)cc2)c2ccccc2)cc1	-1	5	-0.5	12%	2	-3	-8.0	-6	-17	-1.6
CCOC(=O)c1ccc(CSc2nnc(-c3ccncc3)n2N)cc1	-3	1	-0.2	7%	x	x	x	-16	x	3.3
Cn1c(=O)n(CCc2ccccc2)c(=O)c2c1nc1n2CCCN1CCc1ccccc1	10	-1	1.3	32%	x	x	x	53	x	u
Cc1cccc(CSc2ccc3nnc(-c4ccccn4)n3n2)c1	-5	-27	1.5	1%	-17	-23	-1.7	-2	0.3	-1.8
O=C1OCc2ccc(NC(=O)C3CC3)cc21	1	-4	0.7	2%	15	6	-1.3	-3	1.3	0.9
CN(C)NC(=S)Nc1cccc(Cl)c1	-1	1	0.4	-1%	5	-6	1.9	-17	-1.6	0.7

Remaining list, next part:
SMILES	Beta apoptosis	Calb FLC	Bfl-1 A1 inh	Vif A3G	rRNA inh HTS	rRNA inh HTS OD600	rRNA inh HTS RFP	T cruzi repl	MLL AF4-AF9 inh	RanGTP-Imp inh
O=C(Nc1ccc(N2CCN(Cc3ccccc3F)CC2)cc1)c1ccc([N+](=O)[O-])o1	48	1	2.4	x	x	x	x	22	0.6	-0.6
NC(=O)c1cc(NC(=O)c2cc(Br)c(Br)s2)cc(C(N)=O)c1	-2	-3	0.3	-71%	-24*	-1.1*	6.2*	-24	0.8	2.5
CC(C)=CCC/C(C)=C/Cc1c(O)ccc(C(=O)/C=C/c2ccc(O)cc2)c1O	-1	1	0.5	15%	3	6	-12	-3	6.7	2.6
CCOc1cc(/C=C2/C(=O)N(c3ccccc3)N=C2C)ccc1OC(=O)c1cccs1	-10	0	-0.3	5%	11	0	2.4	-2	2.4	2.9
COc1cc2c(cc1OC)CN(C(=O)c1ccc3nc[nH]c3c1)CC2	4	-21	0.4	-13%	14	8	-2.4	-2	0.8	-2.9
CCN1C(=O)[C@H]2[C@@H](c3ccc(-c4cccc(Cl)c4)cc3)N[C@@](CC(C)C)(C(=O)OC)[C@H]2C1=O	10	x	0.1	x	8	8	2.0	x	-3.1	x
CCCCCCSc1nc(O)c(C2OC(=O)c3c2ccc(OC)c3OC)c(=O)n1CC (centres undefined)	1	20	1.8	0%	-21	-19	6.6	-10	x	-3.2
CCOC(=O)c1cncc(NC(=O)c2ccccc2)c1	-1	-2	-0.1	6%	x	x	x	-4	x	4.0
Cc1ccc(OCCCC(=O)N(C)CC(=O)Nc2ccccc2Br)cc1	-2	x	0.4	-5%	-10	-16	0.4	1	-1.4	2.0
CCOc1cccc(C2CC(=O)Nc3cc(OC)c(OC)cc32)c1 (centres undefined)	-2	4	0.4	5%	7	-4	0.3	1	-2.6	2.6
CC1CCc2[nH]c3ccc(C(=O)N(C)CC(=O)Nc4ccccc4C(F)(F)F)cc3c2C1 (centres undefined)	3	7	0.0	-2%	1	0	1.2	1	3.0	9.5
COc1ccc(CNC2c3ccccc3-c3ccccc32)cc1OC	-8	-17	-0.1	x	6	9	0.2	-9	1.2	0.3
O=C(CCCn1c(SCC(=O)c2ccc(Cl)cc2)nc2ccccc2c1=O)NCc1ccco1	18	-5	1.0	2%&-2%	x	x	x	16	x	-1.1
